# T cruzi repl: T. cruzi replication inhibition. T. cruzi beta-gal in NIH3T3, luminescence, 90 h. inhibition, % (concentration not given with the values). 300,000 tested, 1.4% active. AID 1885;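 active = mean inhibition across valid replicates above about 55%, limit read from the data; inconclusive = mean below that limit but half or more replicates reach it; inactive = mean below it, under half of replicates reach it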;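 note: signal also drops with host cell toxicity which is not excluded here; 0% = plate median of DMSO wells and 100% = zero luminescence signal; higher percent means less beta-gal luminescence so fewer parasites; stock transfer was 50 nL into about 50 µL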
# Bfl-1 A1 inh: inhibitors of the anti-apoptotic protein A1, read as caspase activation; MEF A1-2A-BIM cells, Caspase-Glo 3/7 luminescence, 3 h; percent of clofoctol response, vehicle zero; caspase activation, % (test concentration not listed); 330,000 tested, 0.066% active; AID 2462;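 active = over half of replicate activation scores above 10%, or exactly half above 10 with the replicate mean above 10; inconclusive = replicate mean below 10 yet half the replicates above 10; inactive = over half of replicates below 10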;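 note: wells of about 30 µL received 50 nL stock; many hits fall short of the cut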
# Vif A3G: HIV-1 Vif–A3G interaction blockers – biochemical, TR-FRET, GST-Vif 1-94, biotin-A3G peptide, dose response retest, primary screen (AID 1117319); TR-FRET GST-Vif / biotin-A3G peptide binding; higher % means a stronger effect; test concentration not given here; strong numbers were not always called active; inhibition, %, or IC50 in µM where a hit was titrated; 260,000 tested, 0.57% active;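 active = above the screen mean plus three standard deviations and confirmed in dose response; inconclusive = results disagree or hit not tested in dose response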;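 note: Vif residues 1-94 fused to GST binding biotinylated APOBEC3G peptide 110-148; 0% = full assay without inhibitor and 100% = GST in place of GST-Vif; retest series ran down from 100 µM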
# Beta apoptosis: blocks beta cell apoptosis | INS-1E cytokine-induced death, ATP luminescence, 48 h; percent of positive-control rescue, neutral wells zero | protection from apoptosis, % (concentration not given with the values) | 300,000 tested, 0.8% active | AID 435005;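 active = all replicates at 75% or more, or half of them and the mean; inconclusive = half reach 75% but not the mean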;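 note: 0% = cytokine-treated negative control wells and 100% = positive control rescue; higher means more ATP so stronger rescue from cytokine killing; wells of about 40 µL received 100 nL stock; the first replicate is given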
# RanGTP-Imp inh: inhibitors of RanGTP-importin-beta interaction, primary screen, biochemical, FRET, CFP-Ran, YFP-importin-beta, homogeneous. cell-free CFP-Ran/YFP-importin-beta FRET ratio. 300,000 tested, 1.1% active. inhibition, % (concentration not given with the values);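 active = most replicates above 15%; inconclusive = exactly half above 15%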;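 note: 0% = DMSO wells and 100% = Ran loaded with GDP instead of GTP; wells of about 40 µL received 100 nL stock; the first replicate is given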
# Ecoli rRNA inh: inhibits bacterial ribosomal RNA function over humanized ribosomes | E. coli WT GFP vs humanized-ribosome RFP mutants, fluorescence, 24 h; active compounds read low; DMSO median 0, no signal -100 | GFP signal change (wild-type ribosome), % (test concentration not listed) | 350,000 tested, 1.6% active | AID 720706;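 active = significant combined selectivity score with lowered wild-type GFP, culture density cut under 30%, mutant RFP and density less affected; inactive = any of these conditions unmet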; note: one replicate is shown; some compounds called inactive have numbers as strong as hits
# Calb FLC: affects C. albicans growth with fluconazole | C. albicans CaCi-2 (fluconazole-resistant clinical isolate) + fluconazole, Alamar Blue growth, 48 h | growth inhibition, % (test concentration not listed) | 300,000 tested, 0.57% active | AID 1979;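 active = most replicates above 75%; inconclusive = exactly half above 75%; inactive = most below 75%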;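 note: all wells also contain fluconazole at 8 µg/ml as a sub-toxic cotreatment; 0% = median of DMSO wells and 100% = median of geldanamycin control wells; wells of about 8 µL received 7.5 nL stock; the first replicate is given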
# AF4-AF9 inh: blocks AF4 peptide binding to human AF9. inhibition, % at 10 µM. P42568. 350,000 tested, 0.47% active. AlphaScreen, biotin-AF4 peptide binding to FLAG-AF9;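 active = every replicate reaching a set inhibition limit, whatever the replicate mean, cut at about 25% in these data; inconclusive = mean inhibition reaches that limit but some replicates miss it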;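 note: 0% = plate neutral control median and 100% = total signal loss; the record names both 10 and 1 µM as test concentration; the first replicate is given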
# Target sequence (P42568 whole entry, looked up): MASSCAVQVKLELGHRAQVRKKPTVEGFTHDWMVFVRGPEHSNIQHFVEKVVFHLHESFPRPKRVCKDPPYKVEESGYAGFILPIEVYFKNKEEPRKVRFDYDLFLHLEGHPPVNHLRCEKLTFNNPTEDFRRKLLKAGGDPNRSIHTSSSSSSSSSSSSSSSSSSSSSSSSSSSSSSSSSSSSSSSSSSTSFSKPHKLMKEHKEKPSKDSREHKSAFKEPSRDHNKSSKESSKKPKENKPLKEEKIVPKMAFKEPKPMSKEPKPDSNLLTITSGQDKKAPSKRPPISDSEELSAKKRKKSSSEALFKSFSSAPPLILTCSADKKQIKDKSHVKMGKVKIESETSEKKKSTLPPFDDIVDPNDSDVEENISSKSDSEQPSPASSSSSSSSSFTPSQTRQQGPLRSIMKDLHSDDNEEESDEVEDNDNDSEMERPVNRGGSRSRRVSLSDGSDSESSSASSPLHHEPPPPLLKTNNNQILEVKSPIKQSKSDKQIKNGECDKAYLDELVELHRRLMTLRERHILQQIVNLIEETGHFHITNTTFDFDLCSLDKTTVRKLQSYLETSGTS
# Ecoli rRNA inh OD600: recorded beside Ecoli rRNA inh, whose call it bears; OD600 change, %; measured here: OD600 growth;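 optical density of the mix in the first replicate; 0 = DMSO median and -100 = no signal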
# Ecoli rRNA inh RFP: also measured in Ecoli rRNA inh; calls as there; RFP signal change, %; measured here: RFP humanized mutant strains;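 first replicate; 0 = DMSO median and -100 = no signal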
# The depositor's hits bear a star; ? = inconclusive; / = no result given; & = joins results of further samples.
smiles	Ecoli rRNA inh RFP	Bfl-1 A1 inh	Ecoli rRNA inh OD600	T cruzi repl	Vif A3G	Calb FLC	Ecoli rRNA inh	AF4-AF9 inh	Beta apoptosis	RanGTP-Imp inh
O=C(/C=C/c1cccc(F)c1)N1CCN(c2ccccn2)CC1	-0.4	-0.2	18	10	15%	6	-5	4.2	7	7.3
C/C(=N\NC(=O)c1ccc(NS(=O)(=O)c2cccs2)cc1)c1ccc2c(c1)OCO2	1.9	-0.3	4	-5	18%	3	-1	0.1	-6	2.0
COc1cc(/C=C2/C(=O)N(c3ccc([N+](=O)[O-])cc3)N=C2N2CCOCC2)ccc1O	-0.1	-4.3	8	1	/	-10	12	15	7	7.5
O=S(=O)(NNC(=S)Nc1ccc(S(=O)(=O)Nc2ncccn2)cc1)c1ccc(Br)cc1	2.9	-0.3	-1	-1	6%	-1	-4	-4.4	1	-2.3
COc1cc(OC)c(N2CC(C(=O)NCCC3=CCCCC3)CC2=O)cc1Cl (stereo unspecified)	/	0.2	/	/	1%	/	/	-3.1	2	/
COc1ccc(NC(=O)c2c(-c3c(Cl)cccc3Cl)noc2C)c(OC)c1	3.3	0.2	-10	28	/	-2	-12	3.5	-4	1.9
CC(NC(=O)OCc1ccccc1)C(=O)NCC1CCCO1 (stereo unspecified)	/	-0.5	/	-29	0%	6	/	/	4	1.4
CCOc1ccc(-c2noc(=O)[nH]2)cc1	/	0.4	/	-21	27%	0	/	/	-3	1.4
COC(=O)C(C(=O)OC)C(CC(=O)c1ccc(C)cc1)c1cc(OC)c(OC)c(OC)c1 (stereo unspecified)	1.9	0.3	7	-1	-5%	-5	7	-1.5	-15	-0.6
CC(=O)c1ccc(C(=O)Nc2nnc(-c3ccc(Cl)cc3)o2)cc1	3.3	0.8	-49	-23	/	-21	-27	-1.0	0	-3.1
O=C(NCC1(N2CCCCC2)CCCCC1)c1cccc(S(=O)(=O)Nc2ccc(F)cc2)c1	3.3	-0.1	-6	/	-1%	/	-1	3.1	1	/
O=C1CC(c2ccsc2)Sc2ccccc2N1 (stereo unspecified)	1.3	0.3	-25	-13	/	-2	-24	/	0	1.7
N/C(=N\OC(=O)COc1cc(Cl)c(Cl)cc1Cl)c1ccccn1	1.7	-5.6	11	29	-6%	-17	5	-1.8	-1	2.4
Brc1ccccc1-c1nnc2sc(Cc3ccccc3)nn12	/	0.6	/	14	3%	40	/	/	-1	-2.1
COc1cc(-c2nc3cc(C)ccn3c2NC2CCCCC2)ccc1-c1ccc(C(C)=O)cc1	/	-0.8	/	36	/	1	/	/	2	-6.3
N#CC(C#N)=C1NC2(CCCCC2)Cc2ccccc21	1.2	-0.3	2	-1	-6%	7	12	/	2	1.8
C/C(CC(=O)Nc1c(C)cc(C)cc1C)=N\NC(=O)Cc1ccccc1	-0.3	0.2	1	7	/	5	4	0.2	-11	0.1
COc1ccc(Cl)cc1NC(=O)COC(=O)c1ccc(C)o1	/	-0.1	/	/	-8%	/	/	-2.5	-15	/
O=C(O)CSCNC(=O)C12CC3CC(CC(C3)C1)C2	/	-0.7	/	-11	1%	-5	/	/	-1	-2.7
CC(C)NC(=S)N/N=C/c1ccc(C(C)(C)C)cc1	-2.2	-0.7	-13	35	?	47	-2	4.6	6	0.1
O=S(=O)(c1ccc(F)cc1)N1CCN(S(=O)(=O)c2ccc3c(c2)OCCO3)CC1	4.9	1.4	19	/	/	/	21	-0.3	0	/
O=C(COc1ccccc1)Nc1cccc2c1CCCC2	/	0.7	/	-8	5%	-8	/	/	-5	1.8
COc1ccc(NC(=O)NC(C)c2ccc3c(c2)OCO3)c(OC)c1 (stereo unspecified)	-0.6	0.9	6	-4	/	-4	10	-4.7	-10	0.3
COc1cccc(C(=O)C[n+]2cccc3cc(OC)ccc32)c1	11	-0.3	10	/	0%	/	21	-0.6	-4	/
Cc1cc(OC(C)C(=O)NCCCn2ccnc2)c2c(C)cc(=O)oc2c1 (stereo unspecified)	4.8	0.2	6	0	/	-2	12	-5.2	-6	0.2
O=C(CN1CCN(C(=O)c2cccc(S(=O)(=O)N3CCCC3)c2)CC1)Nc1ccc(F)cc1	-0.8	0.8	11	/	/	/	4	1.8	4	/
CCCCOC(=O)c1ccc(NC(=S)NC(=O)c2ccco2)cc1	/	-0.4	/	-8	/	-1	/	-0.8	6	-0.2
CC(=O)Nc1ccc(NC(=O)CSc2ccc([N+](=O)[O-])cn2)cc1	-2.1	0.4	8	0	/	-1	4	0.7	2	0.9
CC(=O)N1CCc2cc(Br)cc(S(=O)(=O)N3CCN(c4ccccn4)CC3)c21	/	1.2	/	3	/	5	/	/	-7	-2.0
CC(=O)N1CC(C)Sc2ccc(S(=O)(=O)NC(C)c3ccccc3)cc21 (stereo unspecified)	1.4	0.6	-12	6	2%	7	-2	2.0	3	0.0
COc1ccccc1OCC(=O)NNC(=O)Nc1ccccc1	0.2	0.2	-7	-27	/	4	4	2.2	-1	-0.9
CN(C(=O)COC(=O)c1cc(=O)[nH]c2ccccc12)c1c(N)n(Cc2ccccc2)c(=O)[nH]c1=O	1.0	0.8	2	-15	11%	0	2	-3.3	-5	0.4
COc1ccc(C)cc1Nc1cc(C)nc2nc(C)nn12	0.7	-0.3	-5	-11	-1%	-1	-4	-1.3	3	0.1
COc1ccc(N(CC(=O)Nc2ccccc2C(=O)N2CCCC2)S(=O)(=O)c2ccccc2)cc1	-0.4	-0.1	-10	-16	11%	1	-15	2.3	/	-1.3
CC(C)(C)NC(=O)CN(Cc1cccs1)C(=O)CN1C(=O)C(=O)c2ccccc21	3.6	0.5	2	-11	/	-60	4	0.1	-12	6.3
CCOC(=O)C1CCN(C(=O)c2cc3cc(Br)ccc3oc2=O)CC1	1.7	-0.2	11	-12	-9%	1	13	-1.0	1	-3.3
CC1=C(C(=O)OCc2ccccc2)C(/C=C/c2ccccc2)NC(=S)N1 (stereo unspecified)	/	0.9	/	9	/	-10	/	/	3	3.1
COc1cccc(OC)c1C(=O)Nc1sc2c(c1C(N)=O)CCCC2	0.3	0.6	-20	10	/	-2	-20	1.9	/	3.2
N#Cc1cc2c(nc1SCC1COc3ccccc3O1)CCC2 (stereo unspecified)	/	-1.1	/	27	17%	2	/	/	-5	0.3
COc1ccc(CN(C(=S)Nc2ccccc2)C2CC(=O)N(c3ccc(Cl)cc3)C2=O)cc1 (stereo unspecified)	/	-0.3	/	21	-2%	-2	/	/	-11	0.2
CC(C)(C)OC1NS(=O)(=O)OCC1NCOC(Cl)(Cl)Cl (stereo unspecified)	-1.6	0.0	11	-12	/	-8	12	2.6	-7	?
COc1cc(CN2CCN(C(=O)c3ccccc3F)CC2)cc(OC)c1OC	0.0	1.6	16	10	/	-4	16	-2.7	4	0.2
O=C1CN(c2ccc(Cl)cc2)C(=O)CN1NC(=S)Nc1ccc(Cl)cc1	/	-0.1	/	-8	-8%	-4	/	/	0	6.5
COc1ccc(C)cc1C(=O)CCC(=O)Nc1ccccc1N1CCOCC1	/	0.5	/	-35	-3%	24	/	/	-17	-0.4
CCOc1cc(C(=O)NCc2ccc(C)cc2)ccc1OCC(=O)N1CCOCC1	0.2	-0.6	-1	-21	11%	-7	6	-0.6	1	-1.5
CC(=O)c1nc2ccccc2n1S(=O)(=O)c1ccc(C)cc1	/	-0.2	/	-14	3%	33	/	/	-13	1.5
COc1ccc(Br)cc1CNc1ccc(S(N)(=O)=O)cc1	/	0.9	/	-11	1%	13	/	/	-9	-0.7
CCc1ccc(S(=O)(=O)NCC(O)COc2ccc(OC)cc2)cc1 (stereo unspecified)	-1.6	-0.2	13	5	?	-9	-10	0.9	-1	0.3

# Among those listed so far, these contain a nitro group on carbon.
smiles	Ecoli rRNA inh RFP	Bfl-1 A1 inh	Ecoli rRNA inh OD600	T cruzi repl	Vif A3G	Calb FLC	Ecoli rRNA inh	AF4-AF9 inh	Beta apoptosis	RanGTP-Imp inh
COc1cc(/C=C2/C(=O)N(c3ccc([N+](=O)[O-])cc3)N=C2N2CCOCC2)ccc1O	-0.1	-4.3	8	1	/	-10	12	15	7	7.5
CC(=O)Nc1ccc(NC(=O)CSc2ccc([N+](=O)[O-])cn2)cc1	-2.1	0.4	8	0	/	-1	4	0.7	2	0.9

# Additional compounds follow.
smiles	Ecoli rRNA inh RFP	Bfl-1 A1 inh	Ecoli rRNA inh OD600	T cruzi repl	Vif A3G	Calb FLC	Ecoli rRNA inh	AF4-AF9 inh	Beta apoptosis	RanGTP-Imp inh
CCCN1CCN(CCCNC(=O)CN2C(=O)COc3ccccc32)CC1	-4.9	-0.4	5	-3	2%	-5	6	-28	-4	-0.6
Cc1[nH]c2ccc(F)cc2c1CCN1C(=O)OC(C)(C)C1(C)O (stereo unspecified)	3.1	0.7	-3	-10	11%	-5	3	-17	-8	4.6
Cc1ccc(CNC(=O)c2ccc(Br)o2)cc1	3.4*	-1.7	-6.4*	-8	14%	-9	-18*	-39	1	0.8
CC(=O)Nc1ccc(S(=O)(=O)N2CCC(n3cnc4cc(F)ccc43)CC2)cc1	/	0.3	/	3	8%	23	/	/	-14	5.2
Cn1c(-c2ccc(Br)o2)nc2cc(Br)ccc21	/	-4.6	/	/	-10%	-3	/	/	6	/
CC1=NN2C(=N)/C(=C\c3cc(C)n(-c4ccc(C)cc4)c3C)C(=O)N=C2S1	30	0.6	0	-8	-2%	0	0	-3.2	6	8.2
COc1ccc(C(C(O)C(=O)c2c[nH]c3ccccc23)N2CCN(c3ccccc3)CC2)cc1 (stereo unspecified)	/	3.4	/	8	1%&-3%	12	/	/	-13	6.9
COc1ccc(/C=N/Nc2ncnc3sc(C)c(C)c23)cc1	/	-1.3	/	2	-8%	12	/	/	6	-4.6
COc1ccc(C(=O)Cn2cnc3ccccc3c2=O)c(OC)c1	3.1	0.7	10	-5	/	13	4	-4.3	-4	1.7
COc1ccccc1CN1CC(C(=O)N(Cc2cnn(C)c2)C(C)C)CCC1=O (stereo unspecified)	-2.6	0.2	4	-1	-6%	-1	7	-1.1	-4	0.8

# Record cards (already shown). Order of screens: Ecoli rRNA inh RFP	Bfl-1 A1 inh	Ecoli rRNA inh OD600	T cruzi repl	Vif A3G	Calb FLC	Ecoli rRNA inh	AF4-AF9 inh	Beta apoptosis	RanGTP-Imp inh
# `CC(=O)Nc1ccc(S(=O)(=O)N2CCC(n3cnc4cc(F)ccc43)CC2)cc1` is listed with /	0.3	/	3	8%	23	/	/	-14	5.2
# `Cc1[nH]c2ccc(F)cc2c1CCN1C(=O)OC(C)(C)C1(C)O` (stereo unspecified) is listed with 3.1	0.7	-3	-10	11%	-5	3	-17	-8	4.6

# Only part of the results is shown, so the mix of outcomes need not match the whole.
